Bfl-1 A1 inh – caspase 3/7 activation in MEF A1-2A-BIM cells, primary screen, A1 inhibitor project, cell-based, luminescence, HTS; Caspase-Glo 3/7 luminescence, 3 h; percent of clofoctol response, vehicle zero; caspase activation, % (test concentration not listed); hit rate 0.066% among 330,000; AID 2462, 2010;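 active = over half of replicate activation scores above 10%, or exactly half above 10 with the replicate mean above 10; inconclusive = replicate mean below 10 yet half the replicates above 10; inactive = over half of replicates below 10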;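 also: wells of about 30 µL received 50 nL stock; many hits fall short of the cut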
RanGTP-Imp inh – inhibitors of RanGTP-importin-beta interaction, primary screen, biochemical, FRET, CFP-Ran, YFP-importin-beta, homogeneous. cell-free CFP-Ran/YFP-importin-beta FRET ratio. Ran GTPase (GTP-bound) - importin-beta complex. hit rate 1.1% among 300,000. inhibition, % (test concentration not listed);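 active = most replicates above 15%; inconclusive = exactly half above 15%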;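 also: 0% = DMSO wells and 100% = Ran loaded with GDP instead of GTP; wells of about 40 µL received 100 nL stock; the first replicate is given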
Calb FLC – C. albicans growth inhibition with fluconazole, primary screen, CaCi-2 strain, Alamar Blue fluorescence. C. albicans CaCi-2 (fluconazole-resistant clinical isolate) + fluconazole, 48 h. AID 1979, 2009. growth inhibition, % (concentration not given with the values). hit rate 0.57% among 300,000;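 active = most replicates above 75%; inconclusive = exactly half above 75%; inactive = most below 75%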;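 also: all wells also contain fluconazole at 8 µg/ml as a sub-toxic cotreatment; 0% = median of DMSO wells and 100% = median of geldanamycin control wells; wells of about 8 µL received 7.5 nL stock; the first replicate is given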
Beta2AR agonist – beta2AR agonists driving receptor internalization, primary screen, cell-based, FAP fluorogen, flow cytometry | Beta-2 adrenergic receptor (Homo sapiens), P07550 | Am2.2-beta2AR cells; reference of the scale not given here | response, % (no concentration beside the values) | hit rate 0.43% among 340,000;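 active = response above a set limit, near 3 SD of response in nonfluorescent compounds, cut at about 42% in these data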;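 also: stock transfer was 100 nL into about 11 µL; a reference agonist was the positive control; negative values mostly stem from fluorescent compounds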
Target sequence (P07550 whole entry, looked up): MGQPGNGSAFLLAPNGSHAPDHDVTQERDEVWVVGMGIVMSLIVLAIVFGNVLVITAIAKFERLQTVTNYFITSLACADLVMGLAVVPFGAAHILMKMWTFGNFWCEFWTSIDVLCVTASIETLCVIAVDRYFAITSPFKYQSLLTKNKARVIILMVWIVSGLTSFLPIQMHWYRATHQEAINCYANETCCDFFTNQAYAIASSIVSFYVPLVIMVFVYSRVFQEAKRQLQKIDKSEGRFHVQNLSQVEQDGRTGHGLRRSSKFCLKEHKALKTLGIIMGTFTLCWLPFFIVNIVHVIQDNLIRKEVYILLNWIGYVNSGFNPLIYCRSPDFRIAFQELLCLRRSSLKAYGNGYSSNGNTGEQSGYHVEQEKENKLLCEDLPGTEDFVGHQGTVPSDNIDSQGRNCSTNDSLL
LANA-H2B inh – blockers of LANA interaction with H2A/H2B – biochemical, FP readout, HTS, primary screen | Protein LANA1 (Human herpesvirus 8 type P (isolate GK18)), Q9QR71 | cell-free LANA-H2A/H2B peptide, fluorescence polarization | inhibition, % (test concentration not listed) | hit rate 0.6% among 320,000 | AID 2629, 2010; in the data active = inhibition mostly above about 10%, no sharp cut-off; inactive = mostly below about 6.7%;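 also: stock transfer was 7.5 nL into about 10 µL; 0% = median of vehicle wells and 100% = median of positive control wells; one replicate is shown; the record names a cut of 25% in any replicate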
T cruzi repl – inhibitors of intracellular T. cruzi growth, primary screen, luminescence, NIH3T3 host cells. T. cruzi beta-gal in NIH3T3, 90 h. inhibition, % (test concentration not listed). hit rate 1.4% among 300,000;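 active = mean inhibition across valid replicates above about 55%, limit read from the data; inconclusive = mean below that limit but half or more replicates reach it; inactive = mean below it, under half of replicates reach it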;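 also: signal also drops with host cell toxicity which is not excluded here; 0% = plate median of DMSO wells and 100% = zero luminescence signal; higher percent means less beta-gal luminescence so fewer parasites; stock transfer was 50 nL into about 50 µL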
UCH37 DUB inh – inhibitors of human UCH37 deubiquitinase, primary screen, biochemical, Ub-AMC cleavage, fluorescence; Ubiquitin carboxyl-terminal hydrolase isozyme L5 (Homo sapiens), Q9Y5K5; purified proteasome/UCH37; inhibition, % (concentration not given with the values); hit rate 0.33% among 330,000;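 active = mean of two replicates above 20%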;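 also: 0% = compound-free wells with enzyme and 100% = wells lacking proteasome; stock transfer was 100 nL into about 20 µL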
Target sequence (Q9Y5K5 whole entry, looked up): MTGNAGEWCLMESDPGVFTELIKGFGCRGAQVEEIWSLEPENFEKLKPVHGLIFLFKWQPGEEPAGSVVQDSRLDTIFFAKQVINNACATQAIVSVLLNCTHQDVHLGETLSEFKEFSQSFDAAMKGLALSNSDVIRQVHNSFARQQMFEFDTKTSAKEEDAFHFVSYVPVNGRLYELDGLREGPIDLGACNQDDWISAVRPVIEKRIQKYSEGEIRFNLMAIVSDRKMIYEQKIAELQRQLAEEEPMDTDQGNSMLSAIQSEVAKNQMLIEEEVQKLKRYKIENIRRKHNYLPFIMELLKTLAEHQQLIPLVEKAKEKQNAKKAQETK
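Signal – fluorescence, ex 355 nm, em 460 nm · System – Proteasome-bound UCH37 · Input – 0.15 nM proteasome as dispensed · Timing – 30 min preincubation with enzyme, 25 min cleavage at room temperature · Read-out basis – percent inhibition of cleavage signal versus uninhibited and no-proteasome wells · Medium – Tris-HCl pH 7.4 with ATP-MgCl2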
Beta cell apopt – inhibitors of cytokine-induced beta cell apoptosis, primary screen, luminescence; INS-1E cytokine-induced death, ATP luminescence, 48 h; percent of positive-control rescue, neutral wells zero; protection from apoptosis, % (concentration not given with the values); hit rate 0.8% among 300,000;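 active = all replicates at 75% or more, or half of them and the mean; inconclusive = half reach 75% but not the mean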;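 also: 0% = cytokine-treated negative control wells and 100% = positive control rescue; higher means more ATP so stronger rescue from cytokine killing; wells of about 40 µL received 100 nL stock; the first replicate is given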
Numbers without * were called inactive; ? = inconclusive; nt = no result given. Compounds were not picked by outcome; about 4.3% have a hit in one of these screens.

SMILES	Bfl-1 A1 inh	RanGTP-Imp inh	Calb FLC	Beta2AR agonist	LANA-H2B inh	T cruzi repl	UCH37 DUB inh	Beta cell apopt
Nn1c(SCC(=O)NCc2ccccc2)nncc1=O	-0.4	3.2	-6	-7	nt	2	3.8	-5
Brc1ccc(OCc2cn3ccccc3n2)cc1	-4.8	3.6	-2	-10	2.8	-10	nt	-2
CCCCCCNC(=O)CCNS(=O)(=O)c1ccc(C)cc1	0.7	1.7	-19	3	-18	-8	4.4	2
CCCn1nc(C(=O)NNC(=O)Cc2ccc(S(=O)(=O)N3CCOCC3)s2)c2ccccc2c1=O	1.0	5.1	-3	-8	-1.0	-15	1.2	-6
Cc1nnc(SCC(=O)Nc2ccc3c(c2)COC3=O)n1-c1ccccc1	-0.6	4.2	14	-6	3.1	-2	-0.8	-4
COc1cc(C(=O)Nc2ccc(S(=O)(=O)N3CCCCC3C)cc2)cc(OC)c1OC (stereo not given)	0.1	7.8	-27	8	1.0	20	3.8	10
Cc1ccc(C(=O)NCCc2nnc3ccc(NCc4ccc5c(c4)OCO5)nn23)cc1	-1.6	-1.8	-3	9	-2.4	15	4.3	nt
O=C1CCCN1CC(O)CS(=O)(=O)Cc1ccc(Cl)cc1Cl (stereo not given)	0.7	6.9	4	0	-2.5	2	-0.1	-1
CCC(C)[C@H](NC(=O)N1CCn2c1nc1ccccc12)C(=O)NCCc1ccccc1 (stereo not given in full)	-0.2	0.0	-9	-11	-3.5	19	1.4	-7
CCCN1CCC(N(C)CCc2ccc(OC)c(OC)c2)CC1	-0.3	1.0	11	11	5.8	56*	-1.2	1
Cc1ccc(SC[C@H](CC(C)C)N2CCN(C)CCC2=O)cc1	nt	1.3	-7	-5	nt	-16	0.6	nt
CCOc1ccc(NC(=O)C2CCN(c3nnnn3-c3ccccc3)CC2)cc1	0.8	-3.3	-4	3	7.2	0	0.6	-3

One compound at a time, from the list above. Screens in order: Bfl-1 A1 inh, RanGTP-Imp inh, Calb FLC, Beta2AR agonist, LANA-H2B inh, T cruzi repl, UCH37 DUB inh, Beta cell apopt
Brc1ccc(OCc2cn3ccccc3n2)cc1 in the list: -4.8, 3.6, -2, -10, 2.8, -10, nt, -2
CCCN1CCC(N(C)CCc2ccc(OC)c(OC)c2)CC1 in the list: -0.3, 1.0, 11, 11, 5.8, 56*, -1.2, 1

(next part)
SMILES	Bfl-1 A1 inh	RanGTP-Imp inh	Calb FLC	Beta2AR agonist	LANA-H2B inh	T cruzi repl	UCH37 DUB inh	Beta cell apopt
Cc1ccc(C)c(NC(=O)CN(C)C(=O)CN2C(=O)NC3(CCc4ccccc43)C2=O)c1 (stereo not given)	0.2	nt	nt	8	0.7	nt	3.9	-2
CCSC1=C(C#N)C(c2cccc(O)c2)CC(=O)N1 (stereo not given)	1.2	0.4	-5	3	5.1	-7	7.9	nt
COc1cc(C(=O)NCC(=O)OCCN2C(=O)c3ccccc3C2=O)cc(OC)c1OC	-0.8	2.6	?	-2	13	-10	5.8	-5
CCC(C)Nc1nc2c(c(=O)n(C)c(=O)n2C)n1Cc1ccc(F)cc1 (stereo not given)	-0.9	?	6	3	1.1	-4	3.3	nt
Cc1cc(C)c2c(N)c3ccccc3nc2n1	0.5	135*	-6	9	7.2	40	-384	49
O=C(Nc1cc(C(=O)N2CCCC2)ccc1N1CCCC1)c1ccccc1	-0.7	1.4	-8	28	-0.7	-9	4.3	nt
COC(=O)C1CCN(S(=O)(=O)CCNC(=O)c2ccc3c(c2)OCO3)CC1	-0.2	-0.5	-3	8	-2.4	-6	3.3	-6
CC(C)(C)n1c(O)c2ccc(C(=O)N=NC(=O)c3ccccc3)cc2c1O	0.1	5.6	-10	-8	6.2	-21	3.7	-4
CC(=O)c1ccc(S(=O)(=O)Nc2ccc(-c3ccc4nnc(C)n4n3)cc2)cc1	-0.4	0.0	-8	-4	-0.3	-29	7.7	-3
Clc1ccc(-c2cnc3n2CCC3)cc1	-0.5	1.9	-15	1	0.5	-10	-11	nt
Cc1ccc(C)c(NC(=S)NC23CN4CN(CN(C4)C2)C3)c1	1.0	-0.6	7	1	-4.1	-13	-0.2	-5
NS(=O)(=O)c1cccc(NC(=O)CSc2nc3ccccc3n2-c2ccccc2)c1	0.0	-3.2	6	-4	2.2	-2	2.6	11
COc1ccc(CC(=O)OCC(=O)Nc2cccnc2Cl)cc1OC	1.5	-0.5	-1	0	0.6	-3	3.1	0
CSc1cccc(NC(=O)/C=C/c2ccccc2)c1	-4.1	-8.3	22	2	6.1	1	3.2	2
CCc1ccc(NC(=O)C2=CC(c3ccc(OC)cc3)=NS(=O)(=O)N2C)cc1	0.7	6.6	0	8	-0.9	-7	1.9	10
CC(=O)Nc1ccc(OCC(=O)NCCc2ccccc2)cc1	-0.7	0.8	-36	-3	-1.4	-3	3.4	3
O=C(COC(=O)/C=C/c1cccc(F)c1)Nc1ncccn1	-0.2	-2.0	-1	-1	0.5	-12	3.8	-2
Cc1occc1C(=O)Nc1ccccc1C#N	0.3	3.2	2	-6	3.8	-10	-0.4	-9
Cc1cc(C)c[n+](-c2nc3ccccc3nc2[N-]S(=O)(=O)c2cccs2)c1	-0.1	-0.4	0	3	3.6	-10	4.1	-3
CCC(Oc1ccc(C)cc1)C(=O)Nc1ccccc1C(=O)N1CCOCC1 (stereo not given)	1.6	-2.1	-20	6	2.6	-8	-2.2	1
CC(=O)Nc1cccc(N/C(N)=N/c2nc(C)cc(C)n2)c1	0.1	0.3	-19	-2	4.6	-11	1.2	-4
Cn1cc(CCC(=O)N2CCCC(C(=O)c3cccc4ccccc34)C2)cn1 (stereo not given)	0.3	nt	-9	-2	-11	11	1.6	5
O=C(NC(Cc1ccccc1)C(=O)O)c1cccnc1Cl (stereo not given)	-0.5	1.4	-1	4	0.1	4	2.6	-3
COc1nc(-c2ccccc2)ncc1S(=O)(=O)c1ccccc1	0.1	?	-16	5	-0.6	18	1.6	-2
CN(C)C(=O)N1CCN(S(=O)(=O)c2ccc3ccccc3c2)CC1	-1.2	-0.5	-5	10	-8.2	2	2.1	-5
C=CCn1c(SC(C)C(=O)Nc2ccc(F)c(F)c2F)nnc1C1CC1 (stereo not given)	-0.5	7.9	-4	-8	3.9	-8	0.7	-2
O=C1C2C3C=CC(C4CC34)C2C(=O)N1/N=C/c1ccc(-c2ccc([N+](=O)[O-])cc2)o1 (stereo not given)	-0.5	nt	nt	5	-4.8	22	nt	-3
COCCNC(=O)CSc1nc2ccc(N3CCOCC3)cc2c(=O)n1CCc1ccccc1	-0.5	8.5	?	-10	-0.1	20	-50	3
COCCCNC(=O)Cn1c(=O)n(CC(=O)N2CCCCC2)c(=O)c2sccc21	1.8	4.9	1	-3	0.1	-6	-0.3	-7
CN1CCN(S(=O)(=O)c2ccc(SCCOc3ccccc3)nc2)CC1	-1.1	-1.6	5	-2	2.0	-2	0.3	-4
CCOC(=O)c1cn(CC)c2ccc(S(=O)(=O)N3CCC(C)CC3)cc2c1=O	0.1	-1.5	-23	-8	-4.0	10	-4.8	-2
CCOC(=O)Cc1cnc(NC(=O)CSc2nc(C(C)C)cc(=O)[nH]2)s1	0.0	?	36	5	0.5	-4	-0.9	-5
CCNc1ccc2noc3c2c1C(=O)c1ccccc1-3	-0.4	-450	20	-55	28*	23	4.0	29
Cc1c(Cl)cccc1NC(=O)CCN1CCC(C(N)=O)CC1	-0.4	1.2	13	0	-0.1	-18	5.4	-1
COc1ccc(-c2ccc(=O)n(CC(=O)Nc3nnc(C(C)C)s3)n2)cc1OC	0.7	-1.4	7	-5	-1.6	-9	-0.6	nt
O=c1c2c3c(sc2nc2n1CCCCC2)C(O)CCC3 (stereo not given)	-2.1	-3.6	0	-3	3.1	1	2.2	0
Cc1cc(NC(=O)C2=C(O)c3ccccc3S(=O)(=O)N2C)no1	0.7	1.1	nt	7	-15	-16	4.1	-1
CCNc1nc(C)nc2c1oc1ccccc12	-0.5	1.6	-2	7	-0.5	-10	0.9	-3
O=C(Oc1c(Cl)cc(Cl)c2cccnc12)N1CCOCC1	-0.1	0.1	92*	-2	2.5	-7	0.7	-3
CSc1sccc1/C=N/O	-0.6	5.3	-2	-2	1.4	-7	nt	-5
Cc1ccc(NS(=O)(=O)c2ccc(Cl)c(C(=O)Nc3ccccc3-c3nc4ccccc4[nH]3)c2)cc1C	0.4	0.4	4	14	3.4	68*	-87	10
O=C1CCCC(=O)C1C(c1ccc(Cl)cc1)C1C(=O)CCCC1=O	-0.4	nt	nt	5	-1.2	nt	-1.9	-2
COC(=O)C(C(=O)OC)c1ncc(C(F)(F)F)cc1Cl	1.9	-1.6	3	-3	5.8	-4	0.6	-1
COC(=O)C(C)Oc1ccc(-c2nccc(-c3ccc(F)cc3)n2)cc1 (stereo not given)	-0.7	1.8	-5	12	3.5	-5	0.1	-1
COc1cc(C(=O)N/C(=C\c2cn(C)c3ccccc23)C(=O)NCCCO)cc(OC)c1OC	0.3	nt	-20	9	5.1	5	12	-12
N#Cc1c(-c2ccncc2)c2c([nH]c1=O)-c1ccccc1OC2	-0.3	56*	-13	nt	-5.4	6	nt	-2
CCOc1ccccc1CNC(=O)C1CCN(C(=O)N2CC(C)Oc3ccc(C)cc32)CC1 (stereo not given)	-0.2	2.8	1	-8	-1.8	-7	1.7	11
COc1ccc(S(=O)(=O)N(C)c2ccc(C(=O)NCc3ccncc3)cc2)cc1	-1.1	0.1	-6	-10	-2.2	-5	1.4	-3
O=c1[nH]c2ccccc2nc1CCc1ccccc1	-1.2	-2.4	1	-14	-5.4	-10	1.7	4
COC(=O)CSc1nc(COc2ccccc2)nc2ccccc12	-0.3	2.0	3	1	0.1	6	5.6	1
Cc1c(NC(=O)C2CCCN2C(=O)c2cccs2)c(=O)n(-c2ccccc2)n1C (stereo not given)	-1.4	4.8	1	-15	-0.4	-12	2.9	1
Cc1ccc(C(=O)c2c3ccc(N)cc3nn2CCC(N)=O)cc1	-0.5	-1.8	14	-1	-1.5	3	4.9	0
CC(C)(C)n1nnnc1C(c1ccc(Cl)cc1)N1CCCc2ccccc21 (stereo not given)	-0.9	2.7	4	2	-10	13	1.4	nt
CCOC(=O)C(NCCCCl)c1ccccc1 (stereo not given)	0.6	-1.0	-6	-5	3.5	-11	3.8	-2
CCCCCCCNC(=O)C1(CC2CC(c3ccccc3)=NO2)CCN(C(=O)c2ccccc2)CC1 (stereo not given)	-0.5	nt	nt	12	1.9	nt	6.8	7
CCOc1cccc2sc(=NC(=O)CCS(=O)(=O)c3ccccc3)n(CC)c12	-0.7	0.2	3	7	-1.8	2	-1.7	7

High-throughput results from PubChem BioAssay.
